CFTR F508del: compounds raising F508del-CFTR protein level – cell-based, HeLa F508del-CFTR, immunofluorescence, viability, primary screen (AID 1224863). HeLa F508del-CFTR, immunofluorescence total CFTR, 24 h; by the record results were divided by relative cell number; some inactives read as strong as hits. calls, or highest fold increase where a dose series was run. 10,000 compounds, 0.1% hits; in the data nearly all actives have a first-pass fold increase above 1.5; a few of its hits are not listed in these tables;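 also: total CFTR protein by anti-CFTR immunofluorescence in fixed cells; first pass at 25 µM or 10 µg/mL by library and series up to twice that; 1 = untreated cells; first-pass hits also needed half or more of the cells alive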
CFTR F508del fold 25 µM: further read-out of CFTR F508del, marked with its call; fold increase; measured here: primary screen single dose 25 uM; library dosed in µM
CFTR F508del fold 10 ug/mL: second read-out of CFTR F508del, no call of its own (marks repeat the call); fold increase; measured here: primary screen 10 ug/mL
CFTR F508del viability 25 µM: recorded beside CFTR F508del, whose call it bears; viability, %; measured here: primary viability 25 uM; library dosed in µM;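 0% = killed and 100% = untreated cells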
CFTR F508del viability 10 ug/mL: recorded beside CFTR F508del, whose call it bears; viability, %; measured here: primary viability 10 ug/mL;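 0% = killed and 100% = untreated cells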
* hit, by the source's call; i = inactive; . = not tested or not shown; & = joins results of further samples. Not all compounds are listed; count on the stated rates, not on these rows.

SMILES | CFTR F508del | CFTR F508del fold 10 ug/mL | CFTR F508del viability 10 ug/mL | others
NCCS(=O)(=O)N1CCC2(CC1)OCCO2 | i | 1.1 | 101
COc1ccc(C2CCCCCN2S(=O)(=O)c2ccc(S(C)(=O)=O)cc2)cc1 (stereo not drawn) | i | 1 | 81
COc1cc(-c2nnc(SCCNCCO)n2C2CCCCC2)cc(OC)c1OC | i | 1 | 90
CN(C)c1ccc(CCCNc2ncnc3c2cnn3C)cc1 | i | 1 | 88
CC1CCCCC12NC(=O)N(CN1CCCCCCC1)C2=O (stereo not drawn) | i | 1.1 | 100
CS(=O)(=O)NCC1CCCN(c2nc3ccccn3c2[N+](=O)[O-])C1 (stereo not drawn) | i | 0.93 | 93
CC(C)CSc1nnc(SC2CCCCNC2=O)s1 (stereo not drawn) | i | 1 | 91
O=C(CCS(=O)(=O)C1CCCC1)NC(c1cccs1)C1CCCC1 (stereo not drawn) | i | 0.93 | 97
CCCSc1nnc(COc2cc(C)ccc2C)o1 | i | 0.93 | 91
CN(Cc1ccc(N2CCOCC2)cc1)Cc1cc2c(cc1O)OCO2 | i | 0.92 | 98
O=S(=O)(Nc1cc(F)cc(F)c1)c1ccc(S(=O)(=O)N2CCCC2)cc1 | i | 0.9 | 98
CCc1nc(SCc2noc(C)n2)n[nH]1 | i | 1 | 103
C(=C\c1cn(-c2ccccc2)nc1-c1ccccc1)/c1nc2ccccc2s1 | i | 1.1 | 90
COCCOCCCn1c(=O)[nH]c2ccccc2c1=O | i | 1 | 98
Fc1ccc(-c2nnn(Cc3cc(-c4cccs4)on3)n2)cc1 | i | 1 | 97
CCONC(=O)N1CCN(S(=O)(=O)c2ccc3c(c2)OCCO3)CC1 | i | 1 | 110
COc1ccc(Br)cc1CN(C)S(=O)(=O)c1ccc(S(C)(=O)=O)cc1 | i | 1.4 | 101
CCN(CC)S(=O)(=O)N1CC=C(c2c[nH]c3ncccc23)CC1 | i | 1 | 100
CS(=O)(=O)NCC1CCCN(c2ccc([N+](=O)[O-])cn2)C1 (stereo not drawn) | i | 1.1 | 76
CO[C@H]1/C=C/O[C@@]2(C)Oc3c(C)c(O)c4c(O)c(c(/C=N/N5CCN(C)CC5)c(O)c4c3C2=O)NC(=O)/C(C)=C\C=C\[C@H](C)[C@H](O)[C@@H](C)[C@@H](O)[C@@H](C)[C@H](OC(C)=O)[C@@H]1C | 1.9 | . | . | CFTR F508del fold 25 µM=1.5;CFTR F508del viability 25 µM=82
C=CC[N+]1([C@H]2C[C@H]3[C@@H]4CC[C@H]5C[C@H](O)[C@@H](N6CCOCC6)C[C@]5(C)[C@H]4CC[C@]3(C)[C@H]2OC(C)=O)CCCC1 | i | . | . | CFTR F508del fold 25 µM=1&1.1;CFTR F508del viability 25 µM=103&95
CC(C)(C)C(=O)COC(=O)c1c(Cl)ccc(Cl)c1Cl | i | 1 | 91
CC[C@H]1OC(=O)[C@H](C)[C@@H](O[C@H]2C[C@@](C)(OC)[C@@H](O)[C@H](C)O2)[C@H](C)[C@@H](O[C@@H]2O[C@H](C)C[C@H](N(C)C)[C@H]2O)[C@](C)(O)C[C@@H](C)CN(C)[C@H](C)[C@@H](O)[C@]1(C)O | i | . | . | CFTR F508del fold 25 µM=1.3&1.2;CFTR F508del viability 25 µM=94&99
CC(C)N(CC1CCCN(CN2C(=O)CC3(CCCC3)C2=O)C1)C(=O)OC(C)(C)C (stereo not drawn) | i | 0.9 | 82
O=S(=O)(Nc1ccc(N2CCCS2(=O)=O)cc1)c1cc(F)cc(F)c1 | i | 1.1 | 94

Next section:
SMILES | CFTR F508del | CFTR F508del fold 10 ug/mL | CFTR F508del viability 10 ug/mL | others
COCCOC(=O)c1cc(N2CCOCC2)ccc1[N+](=O)[O-] | i | 1 | 99
CC1(C)O[C@@H]2C[C@H]3[C@@H]4CCC5=CC(=O)C=C[C@]5(C)[C@H]4[C@@H](O)C[C@]3(C)[C@]2(C(=O)CO)O1 | i | . | . | CFTR F508del fold 25 µM=1.1;CFTR F508del viability 25 µM=85
COc1cc(Cn2c(=O)oc3ccccc32)c(OC)cc1Br | i | 1 | 88
COc1ccc(CCN2CCC(Nc3nc4ccccc4n3Cc3ccc(F)cc3)CC2)cc1 | i | . | . | CFTR F508del fold 25 µM=0.95&0.6;CFTR F508del viability 25 µM=84&20
Cc1sc2nc(-c3cccs3)nc(N3CCNC(=O)CC3)c2c1C | i | 0.95 | 104
CN(C(=O)CNC(=O)c1ccoc1)C1CCCCC1 | i | 1 | 99
COc1ccc(CN(Cn2ncn(C)c2=S)C2CC2)cc1 | i | 1.2 | 98
CN(C)C(=O)C1CCCN1Cn1nc(-c2cccs2)n(C2CC2)c1=S (stereo not drawn) | i | 0.94 | 87
NC(=O)c1ccsc1NC(=O)CN1CCN(C(=O)C2CC2)CC1 | i | 0.98 | 98
C#Cc1cccc(Nc2ncnc3cc(OCCOC)c(OCCOC)cc23)c1 | i | . | . | CFTR F508del fold 25 µM=0.82&0.9;CFTR F508del viability 25 µM=88&74
CN(Cc1cccc(Cl)c1)S(=O)(=O)c1cccc2nsnc12 | i | 0.85 | 98
Cc1ccc(Nc2nnc(SCC34CC5CC(CC(C5)C3)C4)s2)c(C)c1 | i | 1 | 100
O=C1CC(c2ccccc2)N(S(=O)(=O)c2ccc(N3CCCC3=O)cc2)CCN1 (stereo not drawn) | i | 1 | 105
CCONC(=O)c1n[nH]c(=O)c2ccccc12 | i | 0.99 | 78
O=C1NC(=O)C2(CCN(C(=O)C3COc4ccccc4O3)CC2)N1 (stereo not drawn) | i | 0.94 | 108
FC(F)(F)COc1ncccc1CNc1ncnc2ccccc12 | i | 0.75 | 75
CN1N=C(C(=O)NC2CCCC2)CCC1=O | i | 0.85 | 89
CN1[C@@H](C[C@H](O)c2ccccc2)CCC[C@H]1CC(=O)c1ccccc1 | i | . | . | CFTR F508del fold 25 µM=1.1;CFTR F508del viability 25 µM=86
NC(=O)COC(=O)c1ccc(Cl)s1 | i | 0.9 | 101

Reprinted at random: 4 compounds from above.
SMILES | CFTR F508del | CFTR F508del fold 10 ug/mL | CFTR F508del viability 10 ug/mL | others
O=C1CC(c2ccccc2)N(S(=O)(=O)c2ccc(N3CCCC3=O)cc2)CCN1 (stereo not drawn) | i | 1 | 105
CCONC(=O)c1n[nH]c(=O)c2ccccc12 | i | 0.99 | 78
CN1N=C(C(=O)NC2CCCC2)CCC1=O | i | 0.85 | 89
COc1cc(Cn2c(=O)oc3ccccc32)c(OC)cc1Br | i | 1 | 88

Arranged by molar mass (low to high): some entries from above.
SMILES | CFTR F508del | CFTR F508del fold 10 ug/mL | CFTR F508del viability 10 ug/mL | others
CCONC(=O)c1n[nH]c(=O)c2ccccc12 | i | 0.99 | 78
CCN(CC)S(=O)(=O)N1CC=C(c2c[nH]c3ncccc23)CC1 | i | 1 | 100
C#Cc1cccc(Nc2ncnc3cc(OCCOC)c(OCCOC)cc23)c1 | i | . | . | CFTR F508del fold 25 µM=0.82&0.9;CFTR F508del viability 25 µM=88&74
O=S(=O)(Nc1cc(F)cc(F)c1)c1ccc(S(=O)(=O)N2CCCC2)cc1 | i | 0.9 | 98
